Screening results (PubChem)
Ecoli rRNA inh: reduced GFP signal of wild-type E. coli, primary screen, bacterial rRNA inhibitor project, GFP/RFP fluorescence, OD600, single point | E. coli WT GFP vs humanized-ribosome RFP mutants, 24 h; active compounds read low; DMSO median 0, no signal -100 | GFP signal change (wild-type ribosome), % (concentration not given with the values) | 350,000 compounds, 1.6% hits | AID 720706, 2013;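 active means significant combined selectivity score with lowered wild-type GFP, culture density cut under 30%, mutant RFP and density less affected; inactive means any of these conditions unmet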; further: one replicate is shown; some compounds called inactive have numbers as strong as hits
MLL AF4-AF9 inh: inhibitors of AF4 peptide binding to AF9, primary screen, biochemical, AlphaScreen, biotin-AF4 peptide, FLAG-AF9, single point; Protein AF-9 (Homo sapiens), P42568; inhibition, % at 10 µM; 350,000 compounds, 0.47% hits;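 active means every replicate reaching a set inhibition limit, whatever the replicate mean, cut at about 25% in these data; inconclusive means mean inhibition reaches that limit but some replicates miss it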;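 further: 0% = plate neutral control median and 100% = total signal loss; the record names both 10 and 1 µM as test concentration; the first replicate is given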
Target sequence (P42568 whole entry, looked up): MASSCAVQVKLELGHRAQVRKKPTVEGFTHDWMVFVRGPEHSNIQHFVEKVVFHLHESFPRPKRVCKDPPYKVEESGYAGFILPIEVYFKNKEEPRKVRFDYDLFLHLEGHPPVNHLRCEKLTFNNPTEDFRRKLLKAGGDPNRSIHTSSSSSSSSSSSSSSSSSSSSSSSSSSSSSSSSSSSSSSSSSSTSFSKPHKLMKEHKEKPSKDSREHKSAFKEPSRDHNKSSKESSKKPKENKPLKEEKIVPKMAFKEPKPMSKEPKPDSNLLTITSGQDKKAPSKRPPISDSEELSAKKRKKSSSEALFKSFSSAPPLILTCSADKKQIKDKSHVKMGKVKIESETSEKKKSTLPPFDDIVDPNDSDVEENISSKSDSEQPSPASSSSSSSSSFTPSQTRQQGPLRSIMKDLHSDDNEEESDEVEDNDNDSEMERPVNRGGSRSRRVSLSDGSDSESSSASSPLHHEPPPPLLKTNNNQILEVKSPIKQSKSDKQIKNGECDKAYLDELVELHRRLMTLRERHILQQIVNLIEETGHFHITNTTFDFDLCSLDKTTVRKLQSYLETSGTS
E coli growth: E. coli growth inhibition, primary screen, OD600; 330,000 compounds, 0.21% hits; AID 1053175, 2014; Escherichia coli growth, 23 h; active compounds read low; OD600 absorbance (test concentration not listed);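 active means OD600 absorbance below the run mean of sample wells minus 3.6 SD, in any replicate, cut at about 0.56 in these data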;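 further: stock transfer was 300 nL into about 60 µL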
HNF4A DNA FP: change in binding of human HNF4A to DNA, primary screen, biochemical, fluorescence polarization, FITC-DNA | Hepatocyte nuclear factor 4-alpha (Homo sapiens), P41235 | AID 1224865, 2016 | 360,000 compounds, 0.3% hits | activity change, % at 10 µM | 1 h; in the data active means activity change above about 30%, passing the limit was not always enough;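 further: controls were the assay level and a saturating level of protein; the project sought stronger binding though the title names inhibitors; some compounds called inactive have numbers as strong as hits; positive values seem to mean higher polarization but the record does not say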
ALR H2O2 inh: inhibitors of human ALR sulfhydryl oxidase, primary screen, biochemical, H2O2 detection, HRP-luminol luminescence, single point; inhibition, % (test concentration not listed); AID 485317, 2010; purified ALR, DTT oxidation; 290,000 compounds, 3.8% hits; FAD-linked sulfhydryl oxidase ALR (Homo sapiens), P55789;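 active means mean and each replicate at 75% or more; inconclusive means only one of the two met; inactive means neither met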;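 further: stock transfer was 7.5 nL into about 7.5 µL; 0% = neutral wells and 100% = wells with inactivated enzyme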
Target sequence (P55789 whole entry, looked up): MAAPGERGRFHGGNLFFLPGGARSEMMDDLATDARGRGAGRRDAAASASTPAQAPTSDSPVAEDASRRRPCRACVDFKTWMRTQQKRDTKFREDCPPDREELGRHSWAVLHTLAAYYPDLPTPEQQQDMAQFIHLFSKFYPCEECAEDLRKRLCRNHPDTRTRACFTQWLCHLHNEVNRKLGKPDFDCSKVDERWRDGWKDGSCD
FGF22 binding: binders of human FGF22 protein, primary screen, FGF22 synaptogenesis inhibitor project, biophysical, thermal shift, single point; recombinant FGF22 thermal shift, SYPRO orange fluorescence; percent of sucrose octasulfate shift, DMSO zero; Fibroblast growth factor 22 (Homo sapiens), Q9HCT0; 340,000 compounds, 1.5% hits; calls only at 9.99 µM;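 active means melting point raised past a set limit in the mean and every replicate; inconclusive means no clear call; three in four hits are not shown here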
Target sequence (Q9HCT0 whole entry, looked up): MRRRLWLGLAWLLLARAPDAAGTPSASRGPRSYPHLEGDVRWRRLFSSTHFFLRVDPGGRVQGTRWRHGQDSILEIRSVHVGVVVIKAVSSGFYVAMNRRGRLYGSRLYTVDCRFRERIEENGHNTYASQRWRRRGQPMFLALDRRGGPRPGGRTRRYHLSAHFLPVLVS
Vif A3G: inhibitors of Vif binding to APOBEC3G peptide, primary screen, biochemical, TR-FRET, GST-Vif 1-94, biotin-A3G peptide, dose response retest (AID 1117319); Virion infectivity factor (Human immunodeficiency virus type 1 group M subtype B (isolate …; TR-FRET GST-Vif / biotin-A3G peptide binding; higher % means a stronger effect; test concentration not given here; strong numbers were not always called active; one-dose inhibition, %; IC50 in µM for titrated hits; 260,000 compounds, 0.57% hits;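 active means above the screen mean plus three standard deviations and confirmed in dose response; inconclusive means results disagree or hit not tested in dose response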;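 further: Vif residues 1-94 fused to GST binding biotinylated APOBEC3G peptide 110-148; 0% = full assay without inhibitor and 100% = GST in place of GST-Vif; retest series ran down from 100 µM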
Ecoli rRNA inh OD600: recorded beside Ecoli rRNA inh, whose call it bears; OD600 change, %; measured here: OD600 growth;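 optical density of the mix in the first replicate; 0 = DMSO median and -100 = no signal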
Ecoli rRNA inh RFP: recorded beside Ecoli rRNA inh, whose call it bears; RFP signal change, %; measured here: RFP humanized mutant strains;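 first replicate; 0 = DMSO median and -100 = no signal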
An asterisk follows results filed as active; i = inactive; ? = inconclusive; . = not tested or not shown; & = joins results of further samples. A portion of the library. The share of hits here may be higher or lower than overall.

SMILES	Ecoli rRNA inh	Ecoli rRNA inh OD600	Ecoli rRNA inh RFP	MLL AF4-AF9 inh	E coli growth	HNF4A DNA FP	ALR H2O2 inh	FGF22 binding	Vif A3G
CC(NC(=O)c1ccc([N+](=O)[O-])cc1[N+](=O)[O-])c1ccc(-c2ccccc2)cc1 (centres undefined)	.	.	.	.	0.7	1.8	-11	.	10%
COc1ccc(NC(=O)N[C@H]2CC[C@@H](CCNC(=O)CN3CCOCC3)O[C@@H]2CO)cc1	-1	1	-1.3	-1.9	.	.	.	i	.
C=CC1C(OC2OC(CO)C(O)C(O)C2O)OC=C(C(=O)OC)C1CC1CC(=O)CC(CC(=O)CCc2ccc(O)cc2)O1 (centres undefined)	.	.	.	2.7	0.73	-0.4	37	i	.
F[B-](F)(F)COc1ccccc1	-2	-13	0.4	-2.8	.	0.9	.	i	.
CCOc1ccccc1Oc1coc2cc(OC)ccc2c1=O	.	.	.	.	0.74	0.0	.	.	-8%
Cc1ccc(SCC(=O)N/N=C/c2ccco2)cc1	6	3	-1.2	-7.5	.	3.0	4	i	1%
COc1ccc(C(=O)NCC2CCCN2S(=O)(=O)c2ccccc2)cc1OC (centres undefined)	.	.	.	-5.6	.	2.7	.	i	1%
O=C(N/N=C\c1c(O)ccc2ccccc12)c1ccc(Cn2cccn2)o1	.	.	.	.	.	12	-43	.	13%
O=C(Cn1nc(C(=O)O)c2ccccc2c1=O)Nc1cccc(Br)c1	2	-4	-3.4	0.0	0.67	-0.2	1	i	.
Cc1noc(C)c1NC(=O)Nc1ccc2c(c1)CC(=O)N([C@@H](C)CO)C[C@@H](C)[C@H](CN(C)C(=O)Nc1ccc(F)cc1)O2	0	10	0.3	2.7	.	.	.	i	.
CCOc1ccc(-c2[nH]nc3c2C(c2cccnc2)C(C#N)=C(N)O3)cc1 (centres undefined)	.	.	.	.	0.7	-0.4	9	.	2%
Cc1cc(NO)nc(-c2ccc(Br)cc2)n1	.	.	.	.	0.65	0.7	19	.	5%
COC(=O)[C@]12C[C@H](CC(=O)N3CCSCC3)C(=O)N(CCC3=CCCCC3)C1=C[C@H](C(C)(C)C)O[C@@H]2C	6	6	-2.1	3.1	.	.	.	i	.
CCn1nc(C)c(NS(=O)(=O)c2ccccc2)c1C	.	.	.	.	0.64	-1.5	.	.	6%
CN1CCc2c(sc3c2c(=O)n(-c2ccccc2)c2nnc(SCc4ccc(F)cc4)n32)C1	12	8	2.5	1.7	0.65	-1.8	.	i	.
CCCS(=O)(=O)Nc1c(C(=O)OC)[nH]c2ccccc12	.	.	.	.	0.7	0.1	16	.	8%
Cc1cc(C(F)(F)F)c(C#N)c(Sc2ccccc2)n1	.	.	.	.	.	-1.0	0	.	-1%
C[C@@H]1CN([C@@H](C)CO)C(=O)c2cccc(NC(=O)c3cnccn3)c2O[C@H]1CN(C)Cc1ccc(C(=O)O)cc1	-1	3	-2.0	-3.2	.	.	.	i	.
C1CCN=C(Nc2nc3c(s2)CCCC3)CC1	6	8	1.5	17	0.68	-1.5	-27	i	-5%
CC1(C(=O)NCc2ccc(C(F)(F)F)cc2)CCN1Cc1ccc(-c2ccccc2)o1 (centres undefined)	-6	-25	4.8	4.0	.	1.2	.	i	.
Cc1sc(N=Nc2ccc(N(C)C)cc2)[n+]([O-])c1C	-7	1	-1.1	14	.	-0.3	.	i	-17%
Cc1c(NC(=O)C(C)OC(=O)c2ccccc2O)c(=O)n(-c2ccccc2)n1C (centres undefined)	15	14	-0.4	-0.4	0.7	-2.2	.	i	.
Cc1ccc(N2CN(CCC3=CCCCC3)CNC2=S)cc1	21	4	3.8	3.6	0.67	1.2	-1	i	-4%
COc1ccccc1NC(=S)N1CCN(c2nc(-c3ccccc3)cs2)CC1	-6	1	28	-7.2	0.72	4.0	14	i	-15%
Cc1ccc(NC(=O)CCC(=O)N/N=C/c2cccs2)cc1	16	17	-0.8	1.2	.	2.7	-3	i	3%
Cc1nc(-c2ccc(F)cc2)c(CC(=O)N2CCN(S(=O)(=O)c3cccc(F)c3)CC2)s1	2	1	1.0	?	0.65	3.7	-6	i	-1%
C[C@@H]1CN([C@H](C)CO)S(=O)(=O)c2ccc(C3=CCCCC3)cc2O[C@H]1CN(C)C(=O)c1ccccc1	-11	-33	8.0	5.8	.	.	.	i	.
O=C(Nc1ccc(C(F)(F)F)cc1)N1CCN(c2ccnc3cc(Cl)ccc23)CC1	-44	-68	-10	0.5	0.68	2.1	-7	.	.
N/C(=N\OC(=O)c1ccccc1Cl)c1ccccc1	.	.	.	.	0.76	-2.3	7	.	3%
c1ccc(CN(Cc2ccccc2)Cc2nnc(-c3cc4ccccc4[nH]3)s2)cc1	7	-1	2.1	1.8	0.73	4.8	-5	i	.
Cc1noc(C)c1S(=O)(=O)N(C)C[C@H]1Oc2c(NC(=O)Nc3ccc4c(c3)OCO4)cccc2C(=O)N([C@H](C)CO)C[C@@H]1C	-3	4	1.9	0.5	0.71	-2.4	.	i	0%
C[C@@H]1CN([C@@H](C)CO)C(=O)Cc2cc(NC(=O)C3CC3)ccc2O[C@H]1CN(C)Cc1ccc2c(c1)OCO2	0	-2	-1.9	1.3	.	.	.	i	.
COc1ccc(C(=O)CCC(C)(C)[N+](=O)[O-])cc1	0	7	-3.4	-0.3	0.7	5.8	0	i	-4%
CCCOc1cc(C)c(S(=O)(=O)NCCOC)cc1C	.	.	.	.	0.72	-0.9	-3	.	0%
O=C1N(CC(=O)N2CCc3ccccc32)CCN1Cc1ccc(Cl)cc1	.	.	.	.	0.8	-2.1	-5	.	?
C[C@@H]1CN([C@H](C)CO)C(=O)Cc2cc(NC(=O)Nc3ccc(C(F)(F)F)cc3)ccc2O[C@H]1CN(C)C(=O)Nc1ccc2c(c1)OCO2	1	-5	1.0	1.1	.	.	.	i	.
COCCCn1c(=N)c(C(=O)NCc2ccc3c(c2)OCO3)cc2c(=O)n3ccccc3nc21	.	.	.	.	0.72	6.0	-3	.	7%
Nc1cc(N)nc(SCC(=O)Nc2ccccc2)n1	.	.	.	.	0.72	-5.1	-8	.	29%
COC(=O)c1ccc(CSc2n[nH]c(-c3ccccc3)n2)o1	5	-9	-4.6	0.9	0.7	2.2	38	i	-9%
COc1ccc2c3c(n(C)c2c1)[C@@H](CO)N(Cc1ccccn1)CC31CN(C(=O)NC(C)C)C1	0	3	0.7	-6.8	.	.	.	i	.
Cc1cc(C)n(-c2ccc(NC(=O)C3CCN(Cc4cc(C)c(C)o4)CC3)cc2)n1	4	5	4.2	4.2	0.72	3.4	2	i	.
CCOC(=O)N1CCc2c(sc(NC(=O)Cc3ccccc3)c2C(=O)c2ccc(OC)cc2)C1	17	14	20	25	0.67	2.1	9	i	3%
O=C(c1ccncc1)N1CCN(c2cc(-c3ccccc3)nc3cc(-c4cccc(Cl)c4)nn23)CC1	6	12	1.9	-8.4	.	-2.3	.	i	-2%
Cc1ccc(OCC(=O)NC(=S)Nc2ccc(S(=O)(=O)Nc3cc(C)on3)cc2)c(Br)c1	5	3	-0.2	-9.3	0.75	-2.9	-8	i	0%
CCC(NS(=O)(=O)c1cccs1)c1ccc(C)cc1 (centres undefined)	-20	-33	-5.9	2.3	0.67	2.1	.	i	-8%
CC(C)C[C@H](NC(=O)c1nc[nH]c1C(=O)NCCNC(=O)OC(C)(C)C)C(=O)CNCCNC(=O)c1[nH]cnc1C(=O)N[C@@H](C)C(=O)OC(C)(C)C	8	-11	10	-6.7	.	3.4	-5	i	.
COc1ccc(N2CCN(C(=O)c3ccc4c(=O)n(Cc5ccc6c(c5)OCO6)c(=O)[nH]c4c3)CC2)cc1	10	14	-2.3	-0.8	0.7	6.1	-2	i	0%
COc1ccccc1-c1ccc2c(c1)O[C@@H](CN(C)Cc1ccc3c(c1)OCO3)[C@H](C)CN([C@@H](C)CO)S2(=O)=O	-3	-6	-1.0	0.1	.	.	.	i	.
Cc1noc(C)c1NC(=O)Nc1ccc2c(c1)C(=O)N([C@H](C)CO)C[C@H](C)[C@H](CN(C)C(=O)C1CCCCC1)OCCCC[C@H](C)O2	0	-4	-0.2	-2.6	.	.	.	i	.
CCCC1c2ccc(C)n2CCN1C(=O)Nc1ccccc1Cl (centres undefined)	.	.	.	.	0.74	0.1	-5	.	-2%&30%
C[C@H](CO)N1C[C@H](C)[C@H](CN(C)C)Oc2ncc(C#Cc3ccc(F)cc3)cc2C1=O	4	-3	-1.3	3.6&11	.	.	.	i	.
CCC(=O)N1CCc2cc(Br)cc(S(=O)(=O)NCC3CCCN3CC)c21 (centres undefined)	.	.	.	.	0.74	-3.2	-23	.	-2%
Cn1c(=O)[nH]c(=O)c2c1nc(Br)n2CCCSc1nc2ccccc2o1	.	.	.	.	0.67	2.6	98*	.	?
CCN1CCN(C(=O)c2sc3ncnc(N4CCc5ccccc5C4)c3c2C)CC1	3	0	-1.2	3.5	0.71	2.0	5	i	-7%
O=C(NC12CC3CC(CC(C3)C1)C2)C1CCCN1C(=O)Nc1ccccc1 (centres undefined)	2	14	0.3	-4.3	0.68	0.9	.	i	.
COc1ccc(NC(=O)Nc2ccc3c(c2)C(=O)N([C@H](C)CO)C[C@@H](C)[C@H](CN(C)Cc2ccc4c(c2)OCO4)OCCCC[C@@H](C)O3)cc1	7	-23	11	27*	.	.	.	i	.
CCC/C(=N/NC(=O)c1ccc2c(c1)OCO2)c1cccs1	2	13	-1.3	-6.4	.	-0.7	26	i	-5%
Cn1c(SCC(=O)NCc2ccco2)nnc1C1CCCC1	-4	13	2.5	-0.6	0.7	1.8	1	i	-3%
Oc1[nH]c2ccccc2c1N=NC(=S)N1CCOCC1	.	.	.	.	.	-0.2	90*	.	6%
O=C(C[C@H]1C=C[C@@H](NC(=O)c2cccc(F)c2)[C@@H](CO)O1)NCCN1CCCC1	-1	1	-2.4	-0.7	.	.	.	i	.

(cont.)
SMILES	Ecoli rRNA inh	Ecoli rRNA inh OD600	Ecoli rRNA inh RFP	MLL AF4-AF9 inh	E coli growth	HNF4A DNA FP	ALR H2O2 inh	FGF22 binding	Vif A3G
COCCn1cnc2c1c(=O)n(CC(=O)NC1CCCCC1)c(=O)n2Cc1ccccc1	-1	8	-0.1	0.0	.	-1.1	.	.	2%
Cc1ccc(NC(=O)NC(=O)N(C2CCCCC2)S(=O)(=O)c2ccccc2)cc1	.	.	.	.	0.64	2.7	10	.	-4%
O=C(CNC(=O)C1COc2ccccc2O1)N/N=C\c1ccc(Br)cc1 (centres undefined)	-2	7	0.0	-4.4	.	1.1	2	i	.
N#CCCC(C#N)(c1cccnc1)N1CCOCC1 (centres undefined)	3	13	-0.9	-0.6	.	-5.0	.	i	-4%
CCCC(c1nnnn1Cc1cccs1)N1CCN(c2nc3ccccc3s2)CC1 (centres undefined)	.	.	.	.	0.76	-0.7	-2	.	4%
Cc1cn(C2CC(O)C(CO)O2)c(=O)n(Cc2ccccc2)c1=O (centres undefined)	9	10	-2.0	1.7	.	0.0	.	i	-1%
